# RecA splice inh: Mtb RecA intein splicing inhibition; P9WHJ3; cell-free RecA intein splicing, fluorescence; inhibition, %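 (about 9 µM by stock and volumes)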; actives 0.75% (n = 290,000); in the data active = inhibition above about 30%; inconclusive = no clear call, values can overlap the other calls;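 also: 0% = vehicle wells and 100% = reference inhibitor control wells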
# Target sequence (P9WHJ3 whole entry, looked up, canonical isoform): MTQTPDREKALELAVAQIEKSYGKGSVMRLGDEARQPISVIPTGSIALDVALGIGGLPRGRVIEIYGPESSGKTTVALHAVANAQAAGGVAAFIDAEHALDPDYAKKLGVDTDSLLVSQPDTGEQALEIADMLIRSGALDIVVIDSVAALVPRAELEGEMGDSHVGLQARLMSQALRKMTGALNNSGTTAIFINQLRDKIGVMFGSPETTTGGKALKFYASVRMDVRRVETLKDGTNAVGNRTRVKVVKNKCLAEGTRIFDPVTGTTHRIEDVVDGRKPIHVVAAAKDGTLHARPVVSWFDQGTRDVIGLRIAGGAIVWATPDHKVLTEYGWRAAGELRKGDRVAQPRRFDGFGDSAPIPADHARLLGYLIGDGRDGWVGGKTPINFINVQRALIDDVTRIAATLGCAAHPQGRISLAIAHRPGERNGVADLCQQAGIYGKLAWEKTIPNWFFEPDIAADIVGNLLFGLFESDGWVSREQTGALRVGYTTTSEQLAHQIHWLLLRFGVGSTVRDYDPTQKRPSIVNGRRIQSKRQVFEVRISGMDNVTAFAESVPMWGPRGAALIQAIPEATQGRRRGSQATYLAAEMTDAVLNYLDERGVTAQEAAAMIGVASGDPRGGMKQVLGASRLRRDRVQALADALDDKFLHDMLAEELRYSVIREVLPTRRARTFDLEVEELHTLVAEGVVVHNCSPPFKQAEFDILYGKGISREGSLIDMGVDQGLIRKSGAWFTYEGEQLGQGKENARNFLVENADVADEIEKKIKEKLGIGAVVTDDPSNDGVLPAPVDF
# Mtb bLac sens: beta-lactam sensitization of Mtb H37Rv | M. tuberculosis H37Rv growth with meropenem, percent inhibition; hits of this screen are not shown here | inhibition, % at 25 µM | actives 0.27% (n = 330,000) | AID 434955;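 active = about 74% or more and at least 40 points above the plate without the antibiotic, then above 30% in a dose series; inconclusive = first-round hits that could not be retested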;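 also: growth measured after seven days incubation then overnight dye step; 0% = bacteria only wells and 100% = bacteria with antibiotic; twin plates without the antibiotic show which effects depend on it; some results filed as inactive read as strong as hits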
# Mtb growth: M. tuberculosis H37Rv growth inhibitors, H37Rv strain (AID 1626); M. tuberculosis H37Rv growth inhibition; higher % means a stronger effect; one-dose inhibition, % at 10 µM; IC50 in µM for titrated hits; actives 0.95% (n = 220,000);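 active = confirmed in a dose series; inconclusive = inhibition above 80% but not taken into the dose series; inactive = below 80% or under 30% at every dose of the series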;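 also: bacteria incubated seven days before Alamar blue readout; 0% = bacteria only wells and 100% = bacteria with antibiotic wells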
# Arbovirus anti: antivirals against arbovirus infection | AID 1251 | actives 0.37% (n = 200,000) | arbovirus infection cell-based antiviral screen | inhibition, % at 10 µM;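 active = inhibition from about 30%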;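 also: bluetongue infection of BSR cells; cell survival read as ATP light after 72 h; 0% = infected wells without compound and 100% = uninfected wells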
# YopH PTP inh: YopH (Yersinia) phosphatase inhibition; fluorescence Ex485/Em525; inhibition, %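 (about 10 µM by stock and volumes)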; actives 0.16% (n = 140,000);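 active = inhibition of 50% or more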;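 also: controls were vehicle for no effect and minimum signal wells for full effect; inactives centre near -20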
# Arbovirus anti repeat: also measured in Arbovirus anti; calls as there; inhibition, %; measured here: 10K subset replicate screen; many hits read low in the repeat;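 first of two repeat runs on a subset; 0% = infected and 100% = uninfected wells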
# An asterisk follows results filed as active; ? = inconclusive; nt = not tested or not shown. The list is partial; the hit share may differ from the screen's.
SMILES,RecA splice inh,Mtb bLac sens,Mtb growth,Arbovirus anti,YopH PTP inh,others
O=C(CSc1ncnc2ccccc12)NCc1ccco1,9.5,-12,0%,1,-20,
CP(C)(=O)CCP(=O)(c1ccccc1)c1ccccc1,-1.3,0,3%,2,-28,
O=C(Nc1ccc(Cl)cc1-c1nc2ccccc2s1)c1ccco1,-2.4,?,-6%,-16,21,
Cc1cc(Nc2ccccc2F)n2ncnc2n1,-0.2,?,6%,-1,-34,
COc1ccc(S(=O)(=O)N2CCc3ccccc32)cc1[N+](=O)[O-],-1.8,1,nt,nt,nt,
Cc1c(OCC(F)(F)F)ccnc1CSc1nc2ccccc2[nH]1,-1.6,13,63%,-4,3,
Cn1c2ccccc2c2nnc(SCC(=O)NC3CCCC3)nc21,18,-3,nt,nt,nt,
Cc1ccc(-c2nc(CSCC(=O)NCC3CCCO3)c(C)o2)cc1 (configuration not stated),-1.1,-7,nt,nt,nt,
O=C(Cn1cnc2ccccc21)Nc1ccc(C(=O)O)cc1,-4.5,-5,-16%,4,-18,
CCOC(=O)c1ccccc1NC(=O)CSc1nccn1C,nt,-2,-7%,4,8,Arbovirus anti repeat=1
COc1cccc(C(=O)OCC(=O)Nc2cc(C)c(C)cc2[N+](=O)[O-])c1,8.4,1,8%,10,-35,
CNc1ccc([N+](=O)[O-])cc1-c1nc2ccccc2[nH]c1=O,-0.4,-3,-5%,nt,nt,
COc1ccccc1N(CC(=O)Nc1ccccc1C(=O)NC(C)C)S(C)(=O)=O,7.5,-10,3%,13,-6,Arbovirus anti repeat=2
O=S(=O)(NCc1ccc(Cl)cc1)c1ccc(Cl)nc1,0.0,-1,7%,1,-25,
CCCC(=O)Nc1ccc2c(c1)COC2=O,0.4,-1,-2%,-1,nt,
C[C@H](NC(=O)c1ccccc1Cl)C(=O)OCCOc1cccc(Cl)c1,3.8,58,57%,10,nt,
CC(=O)N1CCN(c2ccc(S(=O)(=O)NCCN(C(C)C)C(C)C)cc2[N+](=O)[O-])CC1,0.4,1,1%,12,-33,
N#CC[C@H](c1ccccc1)N1CCN(Cc2ccccc2)CCC1=O,-1.0,-8,nt,nt,nt,
O=C1NC(=Nc2cccc(Cl)c2)SC1Cc1cccc(Cl)c1Cl (configuration not stated),0.3,1,12%,15,-42,
COc1ccc(CN(C)C(=O)CNC(=O)CNC(=O)c2ccc(Cl)cc2Cl)cc1F,2.8,-5,nt,nt,nt,

# Molecules listed so far containing an aryl thioether with sulfur outside any ring:
SMILES,RecA splice inh,Mtb bLac sens,Mtb growth,Arbovirus anti,YopH PTP inh,others
O=C(CSc1ncnc2ccccc12)NCc1ccco1,9.5,-12,0%,1,-20,
Cc1c(OCC(F)(F)F)ccnc1CSc1nc2ccccc2[nH]1,-1.6,13,63%,-4,3,
Cn1c2ccccc2c2nnc(SCC(=O)NC3CCCC3)nc21,18,-3,nt,nt,nt,
CCOC(=O)c1ccccc1NC(=O)CSc1nccn1C,nt,-2,-7%,4,8,Arbovirus anti repeat=1

# Copied from the entries so far (two entries):
SMILES,RecA splice inh,Mtb bLac sens,Mtb growth,Arbovirus anti,YopH PTP inh,others
CP(C)(=O)CCP(=O)(c1ccccc1)c1ccccc1,-1.3,0,3%,2,-28,
O=C(Nc1ccc(Cl)cc1-c1nc2ccccc2s1)c1ccco1,-2.4,?,-6%,-16,21,

# (cont.)
SMILES,RecA splice inh,Mtb bLac sens,Mtb growth,Arbovirus anti,YopH PTP inh,others
COc1cc2ccccc2cc1C(=O)NC(=S)Nc1nnn(C)n1,0.0,7,-2%,5,-16,
c1ccc(-c2nc(C3CCCCC3)c3ccccc3n2)cc1,6.5,9,nt,nt,nt,
Cc1ccc(S(=O)(=O)N(CC(=O)Nc2ccc(Cl)c([N+](=O)[O-])c2)C2CCCCC2)cc1,3.4,?,14%,15,-42,
Cc1onc(-c2c(Cl)cccc2Cl)c1C(=O)N1CCc2ccccc21,8.9,1,1%,-1,-3,
NC(=O)C1(c2ccccc2)CCC(=O)N1c1ccccc1 (configuration not stated),-1.3,-7,-1%,nt,nt,
COc1ccc(-c2oc(/N=C/N3CCCC3)c(C#N)c2-c2ccc(OC)cc2)cc1,1.9,1,-7%,-7,2,
COc1ccc2c(=O)c(-c3ccccc3)coc2c1,0.2,3,3%,-5,nt,Arbovirus anti repeat=-3
CCc1ccc(OCCNC(=O)c2ccco2)cc1,3.2,?,nt,nt,nt,
O=C(O)c1ccc2c(=O)n3c(nc2c1)/C(=C/c1cccc(Cl)c1Cl)CCCC3,0.0,1,2%,12,-11,
COCCN(C(=O)CSc1nnc(C)n1Cc1ccccc1)c1c(N)n(CC(C)C)c(=O)[nH]c1=O,-1.7,3,2%,17,nt,
Cc1csc(=O)n1CC(=O)OCC(=O)NNC(=O)c1ccc([N+](=O)[O-])cc1,-0.6,27,nt,nt,nt,
O=C(CNC(=O)/C=C/c1ccco1)N=Nc1c(O)[nH]c2ccccc12,-2.1,3,nt,nt,nt,
CCOC(=O)CN(C(=O)CSc1nnc2c(n1)[nH]c1c(C)cc(C)cc12)c1ccccc1,nt,nt,-4%,0,-9,
COc1ccc(NC(=O)c2ccco2)cc1NC(=O)c1cccnc1,1.4,-8,-12%,1,-6,
O=C1C2CCC(C(O)C2)N1Cc1ccccc1 (configuration not stated),-1.4,-5,-1%,-1,-43,
O=C(NCCCN1CCc2ccccc2C1)Nc1ccc(Cl)cc1,1.5,-10,-10%,2,28,
O=[N+]([O-])c1cccc(Nc2nc(Cl)nc(Cl)n2)c1,0.7,4,-1%,2,nt,
CC(C)c1c(C(=O)N/N=C/c2ccc(OCc3ccccc3)cc2)nnn1-c1nonc1N,-2.0,7,nt,nt,nt,
CCCNC(=O)CCn1cc(-c2ccc(OC)cc2)nc1CCN,-0.4,-2,nt,nt,nt,
c1ccc(-c2cnc(-c3cccnc3)o2)cc1,nt,27,1%,2,-33,Arbovirus anti repeat=-3
O=C1NCCN(Cc2ccoc2)C1CC(=O)N(CCO)Cc1ccccc1 (configuration not stated),2.3,2,-5%,2,nt,
COc1ccc(Nc2oc(COc3cccc(C)c3)nc2C#N)cc1,6.3,-1,1%,1,-12,
Cc1ccc(C)c(OCc2nnc(N)s2)c1,-1.5,-5,4%,-6,-33,
CC(C)NC(=O)NC(=O)COc1ccc(Br)cc1Br,3.3,5,2%,1,-34,
CC(C(=O)N(C1CC1)C1(C(=O)Nc2ccccc2)CCCC1)N1C(=O)c2ccccc2C1=O (configuration not stated),4.5,-11,-3%,5,-30,
Cc1cc(OCC(=O)NCC2CCC(C(=O)O)CC2)c2c(C)c(Cc3ccccc3)c(=O)oc2c1 (configuration not stated),-0.4,1,nt,nt,nt,
CC1CN(C(=O)c2cccc(S(=O)(=O)Nc3ccccc3Cl)c2)CC(C)O1 (configuration not stated),-3.3,-16,nt,nt,nt,
COc1cccc(CC(=O)n2nc(N)c3cc4ccc(OC)cc4nc32)c1,0.7,-2,nt,28,-45,
CCOc1ccc(CN2CCN(Cc3cccc4c3OCO4)CC2CCO)cc1 (configuration not stated),-3.2,-7,5%,-6,nt,
COc1ccc(C(=O)NC2(C(F)(F)F)C(=O)Nc3c2c(=O)[nH]c(=O)n3CCc2ccc(OC)c(OC)c2)cc1 (configuration not stated),-3.1,-6,-5%,9,-15,
COC(=O)c1sccc1NC(=O)Cn1nnc(-c2ccccc2C)n1,-2.0,-8,nt,-4,nt,
CCN(CC)c1ccc(N=Cc2ccc([N+](=O)[O-])o2)cc1,2.6,100,8.8µM*,-43,20,
Cc1oc(-c2ccc(-c3ccccc3)cc2)nc1CN1CCN(CC(=O)N(C)C)CC1,2.6,1,-2%,-32,nt,
COc1cccc(CN(C)CC(=O)NCc2ccccc2Cl)c1OC,1.7,6,0%,5,nt,
COC(=O)CN(c1ccccc1OC)S(=O)(=O)c1ccccc1,4.0,-4,-9%,11,-26,
O=C(Nc1ccccc1)c1ccc(N2CCN(c3ccccn3)CC2)c(S(=O)(=O)N2CCOCC2)c1,1.7,49,5%,12,-5,
CC(C)CNC(=O)c1cccc(NC(=O)C2CCCO2)c1 (configuration not stated),-6.0,-18,2%,20,-15,
COc1ccc(Nc2cc(C(=O)NCCCN3CCN(C)CC3)c3ccccc3n2)cc1OC,-2.1,-2,-7%,8,-34,
Cc1cccc(NC(=O)CCC(=O)NCCO)c1,-1.4,-5,-11%,1,-25,
CN1CCN(C(=S)c2cn(CCOc3ccccc3F)c3ccccc23)CC1,2.3,-11,4%,10,nt,

# A draw from above in order of SMILES length, low to high:
SMILES,RecA splice inh,Mtb bLac sens,Mtb growth,Arbovirus anti,YopH PTP inh,others
Cc1cccc(NC(=O)CCC(=O)NCCO)c1,-1.4,-5,-11%,1,-25,
COc1cccc(CN(C)CC(=O)NCc2ccccc2Cl)c1OC,1.7,6,0%,5,nt,
COc1ccc(C(=O)NC2(C(F)(F)F)C(=O)Nc3c2c(=O)[nH]c(=O)n3CCc2ccc(OC)c(OC)c2)cc1 (configuration not stated),-3.1,-6,-5%,9,-15,

# (more compounds)
SMILES,RecA splice inh,Mtb bLac sens,Mtb growth,Arbovirus anti,YopH PTP inh,others
COCc1c(C(=O)OCC(=O)N2c3ccccc3CC2C)oc2ccccc12 (configuration not stated),-0.2,0,-4%,0,-35,
Cc1cccc(C)c1NS(=O)(=O)c1c(C(=O)N2CCCCC2)c(C)n(C)c1C,-2.7,-1,nt,nt,nt,
CCCCOC(=O)CSc1nc2c(cc1C#N)C(=O)CC(C)(C)C2,0.9,97,25%,-5,33,
CN(C)CCCOC(=O)c1ccccc1,1.0,3,-13%,3,-15,
O=C(NCCN1CCNCC1)c1ccccc1O,-1.8,2,nt,nt,nt,
CCOC(=O)/C=c1\s/c(=C\c2ccc3cc(OC)ccc3c2)c(=O)n1CC(=O)NCc1ccc2c(c1)OCO2,-42,5,5%,-13,nt,
CCNC(=O)COC(=O)c1cc(C)n(-c2ccccc2)c1C,-1.4,-3,4%,-2,nt,
Cn1c(=O)c2c(nc(SCc3ccc(C(=O)O)cc3)n2C)n(C)c1=O,-0.5,-2,nt,nt,nt,
Cc1ccc(NC(=O)CSc2n[nH]c(N)n2)cc1S(=O)(=O)N1CCOCC1,-1.5,-3,-9%,nt,nt,
O=C(NCCc1ccc(Cl)cc1Cl)c1cc([N+](=O)[O-])c[nH]c1=O,-5.0,16,nt,nt,nt,
COc1ccc(C)cc1-n1nnnc1SCC1CCCO1 (configuration not stated),3.9,3,1%,-2,-19,
Cc1cc2nc(-c3ccccn3)c(-c3ccccn3)nc2cc1C,1.1,nt,0%,nt,nt,
COc1ccc(-c2oc3c4c(cc(OC)c3c(=O)c2CC=C(C)C)OC(C)(C)C=C4)c(OC)c1,24,8,12%,nt,nt,
Cc1ccc(S(=O)(=O)NNC(=O)Nc2ccc(Cl)cc2)cc1,-1.6,-8,-4%,-10,-30,
COCCN(C(=O)c1ccccc1OC)c1nnc(C)s1,-0.5,0,2%,7,nt,
CNc1c(N)c(=O)oc2ccccc12,-4.8,-2,7%,2,nt,

# Grouped by structure: the compounds so far with an NH in an aromatic ring (eight)
SMILES,RecA splice inh,Mtb bLac sens,Mtb growth,Arbovirus anti,YopH PTP inh,others
Cc1c(OCC(F)(F)F)ccnc1CSc1nc2ccccc2[nH]1,-1.6,13,63%,-4,3,
CNc1ccc([N+](=O)[O-])cc1-c1nc2ccccc2[nH]c1=O,-0.4,-3,-5%,nt,nt,
COCCN(C(=O)CSc1nnc(C)n1Cc1ccccc1)c1c(N)n(CC(C)C)c(=O)[nH]c1=O,-1.7,3,2%,17,nt,
O=C(CNC(=O)/C=C/c1ccco1)N=Nc1c(O)[nH]c2ccccc12,-2.1,3,nt,nt,nt,
CCOC(=O)CN(C(=O)CSc1nnc2c(n1)[nH]c1c(C)cc(C)cc12)c1ccccc1,nt,nt,-4%,0,-9,
COc1ccc(C(=O)NC2(C(F)(F)F)C(=O)Nc3c2c(=O)[nH]c(=O)n3CCc2ccc(OC)c(OC)c2)cc1 (configuration not stated),-3.1,-6,-5%,9,-15,
Cc1ccc(NC(=O)CSc2n[nH]c(N)n2)cc1S(=O)(=O)N1CCOCC1,-1.5,-3,-9%,nt,nt,
O=C(NCCc1ccc(Cl)cc1Cl)c1cc([N+](=O)[O-])c[nH]c1=O,-5.0,16,nt,nt,nt,

# Compound activity (PubChem BioAssay)
